# VACV mCherry inh: vaccinia inhibition (mCherry reporter); Vaccinia virus mCherry reporter infection, fluorescence; about a quarter of the inactives have no number; Potency, µM (series often up to 36.5 µM), for inactives: top-dose activity change, negative = inhibition, most hits filed as inhibitors; hit rate 0.63% among 310,000; active = well fitted inhibition curve with a large enough effect; inconclusive = small, poorly fitted or top-dose-only effect; inactive = no such curve, though single readings can be large or run the other way; tested in A549 cells; note: nearly all actives have a fitted effect of over 35% in size; inactives centre near -10
# VACV Venus inh: vaccinia inhibition (Venus reporter) | Vaccinia virus Venus reporter expression, fluorescence | Potency, µM (doses to about 36.5 µM), inactives show top-dose activity change, negative = inhibition, most hits filed as inhibitors | hit rate 0.46% among 330,000 | AID 720580; active means well fitted inhibition curve with a large enough effect; inconclusive means small, poorly fitted or top-dose-only effect; inactive means no such curve, though single readings can be large or run the other way; tested in A549 cells; note: nearly all actives have a fitted effect of over 30% in size; inactives centre near -10
# The depositor's hits bear a star; i = inactive; u = inconclusive; x = not tested or not shown; & = joins results of further samples; [ ] = another dose, or the depositor's remark. % is set by controls: 0 for no effect and ±100 for the full control effect; potency is the fitted concentration of half-maximal effect.
Structure	VACV Venus inh	VACV mCherry inh
Cn1c(SCC2CCCCC2)nnc1-c1ccncc1	-17%	-24%
CCNc1c(NC(=O)COc2ccc(Cl)cc2)c(=O)oc2ccccc12	8%[7.34 µM]	13%[7.34 µM]
CCOc1ccc(-n2c(SCc3ccc([N+](=O)[O-])cc3)nnc2-c2ccc(OC)cc2)cc1	-28%	u
O=C(C1=NN[C@@H]2C(=O)N(Cc3ccccc3)C(=O)[C@H]12)c1ccc([N+](=O)[O-])cc1	-7%	u
CC(C)c1ccccc1OCC(O)CN1CCN(S(=O)(=O)c2ccc([N+](=O)[O-])cc2)CC1 (stereo not drawn)	u	u
CN(CC(=O)Nc1ccc(F)c(F)c1F)C(=O)C1CCCN1C(=O)c1cccs1 (stereo not drawn)	-15%	-12%
CS(=O)(=O)N1CCN(c2ccccc2NC(=O)Cc2ccc(Cl)cc2)CC1	-6%	x
CCc1ccccc1NC(=O)Cn1c(=O)n(C(C)C)c(=O)c2oc3ccccc3c21	-18%	-8%
CSc1nc(O)c(Nc2cccc(Cl)c2)c(=O)[nH]1	-19%	-6%
COc1cccc(C(=O)C2=NN(C(C)=O)CC2c2ccco2)c1 (stereo not drawn)	-20%	-7%

Structure	VACV Venus inh	VACV mCherry inh
COc1cc(NC(=O)CNC(=O)Cn2cnc3sc(C)c(C)c3c2=O)cc(OC)c1OC	2%	i
Cc1ccc(S(=O)(=O)Nc2csc(C)c2C(=O)O)cc1	-6%	i
CCOC(=O)CNC(=O)C12CC3CC(CC(C3)C1)C2	-1%	-1%
N#CCC(=O)NN1Cc2ccccc2C1=N	-19%	i
O=C(CCCc1c[nH]c2ccccc12)N1CCCCCC1	u	-11%
Cc1cc(C)cc(-n2ccnc2SCC(=O)Nc2ccc3c(c2)OCO3)c1	-8%	-13%
O=C(OCC1COC(c2ccccc2)(c2ccccc2)O1)c1ccccc1 (stereo not drawn)	-10%	i
O=C(Nc1ccccc1)c1c(O)c2c(n(Cc3ccco3)c1=O)CCCC2	-4%	-15%
CC(C)CCN(C(=O)Nc1ccccc1)C(C)c1cccs1 (stereo not drawn)	-1%&-13%	-9%&-6%
NC(=O)CN(c1ccc(Oc2ccccc2)cc1)S(=O)(=O)c1ccccc1	-27%	-13%

Structure	VACV Venus inh	VACV mCherry inh
COc1ccc(C(=O)NCCCCCC(=O)N/N=C/c2ccco2)cc1OC	-17%	i
COc1ccc(C2CC(c3ccc(Cl)c(Cl)c3)Nc3nc(N)nn32)cc1 (stereo not drawn)	-8%	-13%
COc1ccc(N/C=C(\C#N)c2ccc(OCCCF)cc2)cc1	-2%	-5%
Cc1ccc(S(=O)(=O)n2cnc3ccccc32)c(C)c1	-9%	-7%
CCOc1ccc2nc(NC(=O)/C=C/c3ccc4c(c3)OCO4)sc2c1	-6%	-13%
CCS(=O)(=O)N1CCN(C(=O)c2ccccc2[N+](=O)[O-])CC1	-1%	-5%
CCCCCCOc1ccc(C2C(=O)N(C3CCCCC3)CC(=O)N2CCC)cc1 (stereo not drawn)	-25%	-21%
CCOC(=O)N(Cc1ccccc1)Cc1ccc(C(=O)N[C@@H](Cc2ccccc2)C(=O)O)cc1	-11%	-20%
CCc1nc(SCC(=O)Nc2cccc(C(F)(F)F)c2)c2c(=O)n(C)c(=O)n(C)c2n1	-19%	i
Cc1csc(NC(=O)C2CCN(S(=O)(=O)c3cccs3)CC2)n1	-1%	-4%

Structure	VACV Venus inh	VACV mCherry inh
CC(OC(=O)CC1CCCC1)C(=O)Nc1ccc(Cl)cn1 (stereo not drawn)	-15%	i
COc1ccccc1C(=O)Nc1cccc(C(=O)OCc2cc(=O)n3nc(C)sc3n2)c1	-28%	-28%
Cc1ccc(N2C(=O)NC(NC(=O)C3CC3)(C(F)(F)F)C2=O)cc1 (stereo not drawn)	-13%	-1%
COc1ccc(C(=O)Nc2cc(C)on2)cc1S(=O)(=O)N1CC(c2ccccc2)CC1=O (stereo not drawn)	-8%	-1%
CS(=O)(=O)c1ccc(Cl)c(NC(=O)COC(=O)CNC(=O)c2cccs2)c1	-3%	-9%
CN(C(=O)COC(=O)c1c2c(nc3ccccc13)/C(=C/c1cccc([N+](=O)[O-])c1)CCC2)C1CCS(=O)(=O)C1 (stereo not drawn)	-24%	-15%
Cc1cccc(N2C(=O)CS/C2=N\NC(=O)c2ccc(Br)cc2)c1C	-7%	-11%
Cc1c(Cl)cccc1NC(=O)CCC(=O)NNC(=O)c1ccccc1	-8%	-1%
CCN1C(=O)/C(=C/c2cccs2)SC1=Nc1ccc(OC)cc1	-7%	x
COc1ccc(N2CCN(Cc3nnc(-c4cccc(Br)c4)o3)CC2)cc1	-1%	0%

Structure	VACV Venus inh	VACV mCherry inh
N#Cc1ccc(OCC(=O)N2CCc3ccccc32)cc1	-19%	-5%
CCN(CC)C(=O)C(=O)Nc1ccc(OC)c(Cl)c1	6%	0%
O=C(NCc1ccccc1Cl)C1CCC(CNc2c(N3CCCCC3)c(=O)c2=O)CC1 (stereo not drawn)	-16%	6%
O=S(=O)(NCC1CCCO1)c1cnc(Cl)c(Br)c1 (stereo not drawn)	-19%	-6%
Cc1cccc(C)c1NC(=O)C1(C)CCC(=O)N1CCCn1ccnc1 (stereo not drawn)	4%	6%
CCCN1CCN(CCCNC(=O)C(CC)n2nc(C)c3sc4ccccc4c3c2=O)CC1 (stereo not drawn)	u	-26%
Cc1ccc(C(=O)N/C(=C\c2cccs2)C(=O)NC2CCCCC2)cc1	-23%	-15%
COc1ccccc1C(=O)Nc1ccnn1C1CCN(Cc2cc(C)c(C)cc2C)CC1	-23%	-9%
OCCN1CCN(c2nc(NCc3ccco3)c3ccccc3n2)CC1	-15%	x
CCc1sc(C(=O)Nc2ccccc2N2CCOCC2)cc1C	-13%	i

Structure	VACV Venus inh	VACV mCherry inh
CS(=O)(=O)N(CCc1ccccc1)CC(=O)NCc1ccccc1	-9%	-3%
O=C(CCc1ccccc1)N/N=C/c1cc(Br)ccc1O	u	13µM*
N#Cc1ccc(-c2csc(-c3ccno3)n2)cc1	-4%	-6%
Cc1sc2ncn3cnnc3c2c1C	2%	x
CC(=O)c1ccc2c(c1)OCCOCCOCCOCCOCCO2	-9%	-14%
COC(=O)C1=C(N)Oc2cc(C)n(Cc3cccnc3)c(=O)c2C1c1ccc(OC)c(OC)c1 (stereo not drawn)	0%	i
CC(=O)N1CCN2C(=O)C1CCCC(=O)c1cc(C)ccc12 (stereo not drawn)	-7%	x
CC(=O)c1cccc(NC=C2C(=O)OC3(CCCCC3)OC2=O)c1	u	x
Cc1cccc(C(=O)NC(CC(=O)O)c2ccc(OC3CCCC3)cc2)c1[N+](=O)[O-] (stereo not drawn)	-7%	10%
O=c1c2sc3ccccc3c2n(Cc2cccc(Cl)c2)c(=O)n1Cc1ccc(F)cc1	-12%	-15%

Structure	VACV Venus inh	VACV mCherry inh
CC[C@H](C)C(N)c1cn(C(CCCN=C(N)N)C(=O)N2CCNCC2)nn1 (stereo partly drawn)	-7%	i
CC(OC(=O)CCN=C1NS(=O)(=O)c2ccccc21)C(=O)NCc1ccccc1 (stereo not drawn)	-3%	-12%
Cc1cccc(-c2nnc(SCC(=O)N3CCCC3)o2)c1	-21%	-11%
C=CCc1c(O)c(CC)cc2c(C)cc(=O)oc12	1%	i
Cc1cccc(CC(=O)NCC(=O)NCc2cc(=O)n(C)c(=O)n2C)c1	14%[7.34 µM]	2%[7.34 µM]
COc1ccc(-c2csc(Nc3ccc(C)cn3)n2)cc1	-17%	-14%
Cc1cc(=O)c2cc(C(=O)Nc3ccc(F)cc3)ccc2[nH]1	-10%	-5%
CCOC(=O)c1[nH]c(C)c(CCC(=O)NCc2ccc(OC)cc2)c1C	-4%	-3%
O=c1c2c(nc3cc(-c4ccc(Cl)cc4)[nH]n13)CCS2	-6%	-14%
O=C(COC(=O)c1cccc(C(=O)OCC(=O)NC2CCCCC2)n1)NC1CCCCC1	-13%	-21%

Structure	VACV Venus inh	VACV mCherry inh
COc1ccc(OC)c(S(=O)(=O)NCCCc2ccccc2)c1	8%	i
Cc1cccn2c(=O)c(/C=C(\C#N)C(=O)NCc3ccco3)c(N3CCCCC3)nc12	-6%	-13%
O=C(NCC1CCCN(Cc2nccs2)C1)c1cccc2ccccc12 (stereo not drawn)	-13%	i
O=C(Nc1ncc(Cc2cccc(Cl)c2)s1)c1ccc([N+](=O)[O-])cc1	-29%	u
COC(=O)C1CSC(C(=O)OC)N1C(=O)CN1CCN(c2ccccc2)CC1 (stereo not drawn)	-7%	-8%
CCN(CC)C(=O)CSc1nc2ncc(Cl)cc2[nH]1	-16%	x
C[C@H]1CN([C@@H](C)CO)S(=O)(=O)c2ccc(C#CC3CC3)cc2O[C@H]1CN(C)C(=O)c1cccnc1	-9%	-12%
O=C(c1cc(-c2ccc(Cl)cc2)n[nH]1)N1CCN(C(=O)c2ccco2)CC1	0%[7.34 µM]	12%[7.34 µM]
CCn1c(C)c(C(C)=O)c(N2CCN(c3ccccn3)CC2)nc1=S	-6%	-11%
S=C(c1c[nH]c2ccccc12)N1CCCC1	-12%	-17%

# A section from further up:
Structure	VACV Venus inh	VACV mCherry inh
CCN(CC)C(=O)CSc1nc2ncc(Cl)cc2[nH]1	-16%	x
C[C@H]1CN([C@@H](C)CO)S(=O)(=O)c2ccc(C#CC3CC3)cc2O[C@H]1CN(C)C(=O)c1cccnc1	-9%	-12%
O=C(c1cc(-c2ccc(Cl)cc2)n[nH]1)N1CCN(C(=O)c2ccco2)CC1	0%[7.34 µM]	12%[7.34 µM]
CCn1c(C)c(C(C)=O)c(N2CCN(c3ccccn3)CC2)nc1=S	-6%	-11%
S=C(c1c[nH]c2ccccc12)N1CCCC1	-12%	-17%

# (next part)
Structure	VACV Venus inh	VACV mCherry inh
CCc1cc(/C(Cc2ccc3ccccc3n2)=N\O)c(O)cc1O	u	-29%
COc1cc(CC(=O)OCC(=O)c2ccc3c(c2)OCCO3)cc(OC)c1OC	u	u
COc1ccc(/C=N/Nc2nc(-c3cccc(S(=O)(=O)N4CCCC4)c3)cs2)c(OC)c1	u	u
COc1ccc(-n2c(=O)c3c(c4cc(OC)ccc4n3C)n(Cc3cccc(OC)c3)c2=O)cc1	-11%	-14%
CSCCC(NS(=O)(=O)c1cccc(C(F)(F)F)c1)C(=O)N(C)Cc1ccc2c(c1)OCCO2 (stereo not drawn)	-12%	-26%
CN(CC(=O)Nc1ccccc1Br)C(=O)c1ccccc1OCc1ccc(Cl)cc1	-35%	0.1µM*
CS(=O)(=O)Nc1ccc(S(=O)(=O)N2CCCC2)cc1	-7%	i
O=C(c1nn2c(C(F)(F)F)cc(-c3cccs3)nc2c1Br)N1CCCc2ccccc21	-17%	-25%
CC(=O)Nc1ccc(SCC(=O)NC(=O)c2ccc(Cl)cc2)cc1	-7%	u
C[C@H](CO)N1C[C@H](C)[C@@H](CN(C)Cc2ccccc2)Oc2c(NC(=O)C3CC3)cccc2C1=O	-23%	i

Structure	VACV Venus inh	VACV mCherry inh
CN(C)C(CNC(=O)c1cccs1)c1cccnc1 (stereo not drawn)	-3%	-8%
COc1ccc(N2C(=O)CSC2c2ccccc2F)c(OC)c1 (stereo not drawn)	-9%	-15%
Cc1cc(C(F)F)nn1CC(=O)Nc1cc([N+](=O)[O-])ccc1F	-10%	-20%
CCN(CC)S(=O)(=O)c1ccc(N2CCCCC2)c(C(=O)Nc2ccccc2N2CCOCC2)c1	3%	-1%
COc1ccc(OC)c(-n2c(=S)[nH]c3c(sc(=S)n3-c3ccccc3C)c2=O)c1	-1%	-4%
COc1ccccc1CCC(=O)OCC(=O)Nc1c(C)nn(-c2ccccc2)c1C	-16%	-14%
O=C(c1cc2cc(Br)cc(Br)c2oc1=O)N1CCOCC1	1%	i
COc1cc(OC)c(N(C)C(=O)c2cc3c(=O)oc4ccccc4c3s2)cc1Cl	-19%	-16%
Cc1ccccc1-n1c(SCC(=O)Nc2ccccc2)nc2nc3c(cc2c1=O)CCCC3	-20%	1%
O=C(c1ccc(CS(=O)(=O)c2c(Cl)cccc2Cl)o1)N1CCN(c2ccccc2)CC1	-3%	6%

Structure	VACV Venus inh	VACV mCherry inh
Cc1cccc(C)c1NC(=O)N1CCC(n2cnc3ccccc32)CC1	-14%	-13%
Cc1nn(-c2ccc(C(=O)O)cc2)c(N)c1-c1ccccc1	-4%	-8%
c1ccc(-c2cn3c(n2)SCC3)cc1	-6%	x
CCCS(=O)(=O)c1nnnn1-c1cccc(OC)c1	-11%	-20%
COc1ccccc1C(=O)N1CCOc2ccc(C(C)(O)CCn3cccn3)cc2C1 (stereo not drawn)	-9%	-14%
CS(=O)(=O)c1ccc(C2=C(c3ccccc3)C(=O)OC2)cc1	-12%&-18%	-2%
COC(=O)c1ccc(CSC2=NCCS2)cc1	-4%	-15%
O=C(Nc1ccc2c(c1)OCCO2)c1ccc2ccccc2n1	1%	0%
O=C1S/C(=C\c2ccc(O)c([N+](=O)[O-])c2)C(=O)N1Cc1cccc([N+](=O)[O-])c1	-6%	-1%
COc1ccc(NC(=S)c2ccc(N(C)C)cc2)cc1	-2%	i
Cc1c(N=Cc2ccc(O)c(Br)c2)cccc1[N+](=O)[O-]	-6%	-14%
CN(Cc1ccccc1)S(=O)(=O)c1cc(Br)cc2c1N(C(=O)C1CC1)CC2	-3%	-17%
Cc1c(NC(=O)CN2C(=O)c3ccccc3C2=O)c(=O)n(-c2ccccc2)n1C	-12%	x

# Bioassay records deposited in PubChem by National Center for Advancing Translational Sciences (NCATS).
